A1 inh: caspase 3/7 activation in MEF A1-2A-BIM cells, primary screen, A1 inhibitor project, cell-based, luminescence, HTS | Caspase-Glo 3/7 luminescence, 3 h; percent of clofoctol response, vehicle zero | caspase activation, % (test concentration not listed) | 330,000 compounds, 0.066% hits;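 active means over half of replicate activation scores above 10%, or exactly half above 10 with the replicate mean above 10; inconclusive means replicate mean below 10 yet half the replicates above 10; inactive means over half of replicates below 10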;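 further: wells of about 30 µL received 50 nL stock; many hits fall short of the cut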
UCH37 DUB inh: inhibitors of human UCH37 deubiquitinase, primary screen, biochemical, Ub-AMC cleavage, fluorescence; Ubiquitin carboxyl-terminal hydrolase isozyme L5 (Homo sapiens), Q9Y5K5; purified proteasome/UCH37; inhibition, % (no concentration beside the values); 330,000 compounds, 0.33% hits;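 active means mean of two replicates above 20%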;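 further: 0% = compound-free wells with enzyme and 100% = wells lacking proteasome; stock transfer was 100 nL into about 20 µL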
Target sequence (Q9Y5K5 whole entry, looked up): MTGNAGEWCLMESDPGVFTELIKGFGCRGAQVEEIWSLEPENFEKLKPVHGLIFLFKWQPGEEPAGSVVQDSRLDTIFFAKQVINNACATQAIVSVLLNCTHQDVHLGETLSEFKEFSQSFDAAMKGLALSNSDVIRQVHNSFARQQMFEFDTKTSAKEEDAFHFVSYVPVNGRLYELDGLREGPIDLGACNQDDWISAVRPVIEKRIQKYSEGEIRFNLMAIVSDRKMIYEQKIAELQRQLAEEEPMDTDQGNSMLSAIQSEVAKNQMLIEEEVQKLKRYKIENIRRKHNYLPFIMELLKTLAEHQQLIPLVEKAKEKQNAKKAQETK
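Reagent: Ub-AMC substrate; assay system: Proteasome-associated human UCH37 deubiquitinase; controls: no-proteasome and no-compound wells; read-out: % inhibition of Ub-AMC cleavage fluorescence; timing: 30 min preincubation with enzyme, 25 min cleavage at room temperature; signal: AMC fluorescence from Ub-AMC cleavage, excitation 355 nm, emission 460 nm; buffer or medium: Tris-HCl pH 7.4 plus ovalbumin, ATP-MgCl2, DTT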
Beta2AR agonist: beta2AR agonists driving receptor internalization, primary screen, cell-based, FAP fluorogen, flow cytometry; Am2.2-beta2AR cells; reference of the scale not given here; response, % (no concentration beside the values); 340,000 compounds, 0.43% hits; AID 504454, 2011;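 active means response above a set limit, near 3 SD of response in nonfluorescent compounds, cut at about 42% in these data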;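 further: stock transfer was 100 nL into about 11 µL; a reference agonist was the positive control; negative values mostly stem from fluorescent compounds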
Target sequence (P07550 whole entry, looked up): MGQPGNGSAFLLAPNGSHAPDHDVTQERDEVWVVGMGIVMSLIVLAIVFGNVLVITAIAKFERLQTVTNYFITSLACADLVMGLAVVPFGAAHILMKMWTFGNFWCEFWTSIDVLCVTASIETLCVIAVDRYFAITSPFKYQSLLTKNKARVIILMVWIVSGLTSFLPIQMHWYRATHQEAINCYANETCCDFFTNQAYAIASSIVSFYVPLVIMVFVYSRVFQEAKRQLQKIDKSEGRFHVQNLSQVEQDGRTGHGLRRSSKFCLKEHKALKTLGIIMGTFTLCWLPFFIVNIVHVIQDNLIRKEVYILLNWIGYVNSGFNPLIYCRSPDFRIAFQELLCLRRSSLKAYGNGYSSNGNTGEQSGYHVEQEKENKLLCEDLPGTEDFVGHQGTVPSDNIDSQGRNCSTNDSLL
Calb FLC: C. albicans growth inhibition with fluconazole, primary screen, CaCi-2 strain, Alamar Blue fluorescence; 300,000 compounds, 0.57% hits; growth inhibition, % (no concentration beside the values); C. albicans CaCi-2 (fluconazole-resistant clinical isolate) + fluconazole, 48 h;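 active means most replicates above 75%; inconclusive means exactly half above 75%; inactive means most below 75%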;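 further: all wells also contain fluconazole at 8 µg/ml as a sub-toxic cotreatment; 0% = median of DMSO wells and 100% = median of geldanamycin control wells; wells of about 8 µL received 7.5 nL stock; the first replicate is given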
T cruzi inh: inhibitors of intracellular T. cruzi growth, primary screen, luminescence, NIH3T3 host cells | 300,000 compounds, 1.4% hits | T. cruzi beta-gal in NIH3T3, 90 h | AID 1885, 2009 | inhibition, % (no concentration beside the values);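 active means mean inhibition across valid replicates above about 55%, limit read from the data; inconclusive means mean below that limit but half or more replicates reach it; inactive means mean below it, under half of replicates reach it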;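 further: signal also drops with host cell toxicity which is not excluded here; 0% = plate median of DMSO wells and 100% = zero luminescence signal; higher percent means less beta-gal luminescence so fewer parasites; stock transfer was 50 nL into about 50 µL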
LANA-H2B inh: blockers of LANA interaction with H2A/H2B – biochemical, FP readout, HTS, primary screen. Protein LANA1 (Human herpesvirus 8 type P (isolate GK18)), Q9QR71. cell-free LANA-H2A/H2B peptide, fluorescence polarization. inhibition, % (no concentration beside the values). 320,000 compounds, 0.6% hits; in the data active means inhibition mostly above about 10%, no sharp cut-off; inactive means mostly below about 6.7%;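 further: stock transfer was 7.5 nL into about 10 µL; 0% = median of vehicle wells and 100% = median of positive control wells; one replicate is shown; the record names a cut of 25% in any replicate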
RanGTP-Imp inh: inhibitors of RanGTP-importin-beta interaction, primary screen, biochemical, FRET, CFP-Ran, YFP-importin-beta, homogeneous; Ran GTPase (GTP-bound) - importin-beta complex; cell-free CFP-Ran/YFP-importin-beta FRET ratio; inhibition, % (concentration not given with the values); 300,000 compounds, 1.1% hits;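 active means most replicates above 15%; inconclusive means exactly half above 15%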;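 further: 0% = DMSO wells and 100% = Ran loaded with GDP instead of GTP; wells of about 40 µL received 100 nL stock; the first replicate is given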
Beta apoptosis: inhibitors of cytokine-induced beta cell apoptosis, primary screen, luminescence; INS-1E cytokine-induced death, ATP luminescence, 48 h; percent of positive-control rescue, neutral wells zero; protection from apoptosis, % (concentration not given with the values); 300,000 compounds, 0.8% hits; AID 435005, 2010;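 active means all replicates at 75% or more, or half of them and the mean; inconclusive means half reach 75% but not the mean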;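 further: 0% = cytokine-treated negative control wells and 100% = positive control rescue; higher means more ATP so stronger rescue from cytokine killing; wells of about 40 µL received 100 nL stock; the first replicate is given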
* = called active by the depositor; ? = inconclusive; nt = not tested or not shown.

Order of results: Calb FLC	RanGTP-Imp inh	UCH37 DUB inh	A1 inh	Beta2AR agonist	LANA-H2B inh	Beta apoptosis	T cruzi inh
- Cc1cc(C)nc(NC(=O)CSc2nc3cc(Cl)ccc3s2)n1
→ 6	7.3	5.0	-0.1	0	2.7	-3	-28
- COc1ccc(-n2nc3c(N4CCC(C(=O)NCc5ccccc5C)CC4)nnc(C)c3c2C)cc1
→ 10	7.7	-26	0.3	82*	-3.7	12	13
- O=C(NC(=O)C(F)(F)F)Nc1ccc(S(=O)(=O)Nc2nccs2)cc1
→ 6	-2.3	1.2	0.4	-1	-4.1	-7	-2
- CCOc1ccc(-c2[nH]nc3c2C(c2ccc4c(c2)OCO4)C(C#N)=C(N)O3)cc1OC (configuration not stated)
→ 12	0.6	nt	0.8	7	-4.1	-2	-10
- COc1cc(C(=O)Nc2ccc(S(=O)(=O)Nc3onc(C)c3C)cc2)cc(OC)c1OC
→ -9	4.4	-1.4	-0.5	-2	-1.3	5	-9
- CCS(=O)(=O)C1=NSC2=NC(=O)/C(=C\c3ccc(OC(=O)c4ccco4)cc3)C(=N)N21
→ 25	?	16	-2.0	0	0.9	-3	4
- O=C(CSc1nnc(-c2c[nH]c3ccccc23)o1)N1c2ccccc2CCc2ccccc21
→ 8	1.5	5.5	-0.4	7	3.1	6	?
- Cc1csc(SCC(=O)O)n1
→ -5	1.6	1.8	-1.5	1	5.2	-9	-7
- Cc1cc(C)cc(NC(=S)N2CCN(Cc3ccccc3)CC2)c1
→ -12	4.4	1.8	0.3	1	5.0	-8	-30
- CCOC(=O)c1nccnc1C(=O)Nc1cccc(C(F)(F)F)c1
→ -4	0.6	-0.9	-0.2	6	-3.6	-11	1
- Oc1ccc2ccccc2c1N=Nc1ccccn1
→ 0	-7.2	4.4	-1.0	4	-7.5	95*	55*
- N#Cc1c(N)nc(-c2ccccc2)nc1-c1ccccc1
→ 5	2.3	2.7	0.2	-7	-7.1	-1	-4
- CCCOc1ccc(N2C(=O)CC(N(C(=O)c3ccco3)c3ccc(OCCC)cc3)C2=O)cc1 (configuration not stated)
→ 0	-4.4	1.3	-1.5	-1	-3.7	-4	-21
- Cc1nn(-c2ccccc2)c(C)c1/C=N/n1c(-c2ccc(Cl)cc2)n[nH]c1=S
→ 18	3.8	nt	0.6	-3	1.2	11	-12
- CCN(CCO)Cc1csc2c(Br)cccc12
→ 1	-0.9	3.4	1.1	9	-2.9	-3	16
- CCn1c(=O)cc(SCC(=O)NCc2ccccn2)c2ccccc21
→ -5	-2.3	-4.3	0.1	0	-0.9	-5	0
- CSc1ccccc1C(=O)N1CCCC(CNC(=O)c2ccc(F)cc2)C1 (configuration not stated)
→ -1	2.9	2.0	-0.3	0	-0.5	-5	-7
- Cc1cccc(NC(=O)CSCC(=O)NCc2cccc(C(F)(F)F)c2)c1
→ 0	-1.5	3.4	-0.3	-7	-1.3	-4	-16
- COc1ccc(OC)c(-c2cc(C(=O)N3CCN(c4ccccc4)CC3)no2)c1
→ 0	-0.1	2.8	-0.7	9	-0.6	1	15
- O=[N+]([O-])c1cc2c(c(CSc3ncccn3)c1)OCOC2
→ -32	?	0.1	-0.7	-15	3.1	-1	-8
- c1ccc(-c2cn(-c3ccccc3)c3ncnc(NCCCN4CCOCC4)c23)cc1
→ 6	4.1	4.2	0.0	-13	-0.6	-7	38
- CC(C)OC(=O)c1nnc(Cc2ccc(F)cc2)o1
→ 8	-0.7	-0.1	-0.3	6	5.1	-3	-4
- N#CC1=C(N)Oc2cc(N)ccc2C1c1ccsc1 (configuration not stated)
→ -2	33*	2.2	-0.1	-2	-3.4	-3	-18
- Cc1ccc(C)c(OCCNc2ncccc2[N+](=O)[O-])c1
→ 1	2.9	2.0	-0.4	-1	-1.0	6	9
- O=S(=O)([O-])C(c1ccccc1)[n+]1ccccc1 (configuration not stated)
→ -2	6.5	-1.5	1.2	1	3.1	-3	-9
- O=c1n(-c2ccccc2)c(=O)n(Cc2ccccn2)n1Cc1ccccn1
→ -13	4.1	2.5	0.0	2	13	5	-6
- COc1ccc(CCN(C)C(=O)c2cc(-c3ccccc3)nc3ccccc23)cc1OC
→ 4	-0.5	4.8	-1.1	3	3.5	-2	12
- O=C(CC12CC3CC(CC(C3)C1)C2)Nc1ccc(C(=O)O)cc1
→ -1	-2.9	2.5	0.4	7	4.7	-8	-9
- COc1cccc(NC(=O)c2cc(=O)c3ccccc3o2)c1
→ 4	2.3	2.5	-0.6	5	0.1	0	0
- C/C(=N/NC(=O)c1nnn(-c2nonc2N)c1-c1ccccc1)c1ccc2c(c1)OCO2
→ 8	-0.1	nt	0.3	5	-5.9	-4	-6

Next entries:
Order of results: Calb FLC	RanGTP-Imp inh	UCH37 DUB inh	A1 inh	Beta2AR agonist	LANA-H2B inh	Beta apoptosis	T cruzi inh
- c1ccc2c(c1)ncn2CCn1cnc2ccccc21
→ 6	-4.2	1.8	0.8	-2	1.9	-2	-11
- COC(=O)CSc1nc(NC#N)nc(NC(C)C)n1
→ -6	-0.6	6.9	0.8	-1	6.3	3	-17
- CCN(CC#CCC(O)(c1ccccc1)C1CCCC1)C(C)C (configuration not stated)
→ 13	-0.1	4.9	0.3	5	0.2	3	19
- CCNc1nc2[nH]c(=O)c3c(c2s1)OC(N)=C(C#N)C3c1ccc(C)cc1 (configuration not stated)
→ 6	2.6	5.0	0.2	-12	-10	-9	-5
- NC(=O)NC(Cc1ccccc1)C(=O)Nc1ccc(S(N)(=O)=O)cc1 (configuration not stated)
→ 0	3.7	5.2	0.2	-4	-1.1	2	-8
- Cc1ccc(S(=O)(=O)NC2(C(F)(F)F)NC(=O)N(c3ccc(F)cc3)C2=O)cc1 (configuration not stated)
→ -1	4.5	4.1	0.1	5	-2.2	-8	-19
- CNC(C)C#Cc1ccc2oc3cc(C)c(C)cc3c(=O)c2c1 (configuration not stated)
→ -30	-0.2	nt	-4.6	1	-3.6	1	19
- Cc1ccc(C(=O)N2CCC3(CC2)Oc2ccc(F)cc2C(=O)C32CC(c3ccc(Cl)cc3)=NO2)s1 (configuration not stated)
→ -6	4.1	4.0	0.2	-6	2.6	-6	22
- O=C(N/N=C/c1coc2ccccc2c1=O)c1cc2ccccc2o1
→ 25	-0.3	nt	-0.7	8	nt	-3	-12
- O=S(=O)(c1ccc2ccccc2c1)N1CCC(c2nc(-c3ccncc3)no2)CC1
→ 2	3.0	3.0	-0.1	-3	2.4	17	71*
- NS(=O)(=O)c1ccc(Oc2ccc(S(N)(=O)=O)cc2)cc1
→ -3	1.4	2.3	-0.5	2	2.3	-4	-6
- CC(C)(C)OC(=O)Nc1ncnc2c1ncn2C1OC(CO)C2OC(C)(C)OC21 (configuration not stated)
→ -2	-3.6	1.7	0.6	2	-8.3	-5	-2
- CC(C)CNC(=S)N1CCC(NC(=O)C23CC4CC(CC(C4)C2)C3)CC1
→ -1	1.4	0.1	-0.1	-2	1.4	-9	8
- Cc1cc(C)cc(N(CC(=O)NCc2cccnc2)S(C)(=O)=O)c1
→ 9	-2.4	4.2	0.2	-1	-0.6	-5	-10
- CC(=O)Nc1nonc1-c1nc2ccccc2n1CCC#N
→ -8	5.5	-6.2	0.9	12	-2.0	12	-2
- CC(=O)C[C@@H](O)CC(=O)[C@@H]1OC(=O)[C@H](C)C/C=C\Cc2ccccc21
→ nt	nt	2.2	-0.7	-4	6.2	-4	nt
- COc1ncnc2c1ncn2CC1COC(C)(C)O1 (configuration not stated)
→ -4	1.1	1.6	0.5	-1	-2.1	-7	0
- CCC(COC(=O)c1ccccc1)Oc1cc(NCc2ccccc2)c2ncn(C(C)C)c2c1 (configuration not stated)
→ nt	nt	-0.2	0.0	11	4.5	-7	nt
- COc1cccc(CN2CCCC(C(=O)N3CCCCC3)C2)c1 (configuration not stated)
→ 14	-1.9	1.0	2.1	-7	1.1	-2	30
- Cc1ccc(C(=O)Nc2ccccc2C(=O)O)cc1S(=O)(=O)Nc1ccc(Br)cc1
→ 13	-0.1	3.4	-1.3	-4	-2.0	-1	-6
- Cc1cc(C(=O)NCc2cccc(Cl)c2)c2ccccc2n1
→ 1	-0.8	3.1	0.3	0	3.0	3	-6
- CCc1nnc(NC(=O)C(NC(=O)c2ccccc2Cl)C(C)C)s1 (configuration not stated)
→ 19	1.2	1.5	1.1	-1	-1.2	-6	-2
- Cc1c(C(=O)NN)sc(=S)n1C
→ -1	1.8	5.0	-1.0	-16	-6.0	-14	9
- O=[N+]([O-])c1cccc(/C=N/n2c(C3CCCCC3)n[nH]c2=S)c1
→ 16	1.0	nt	-0.2	-8	-5.0	-2	3
- O=C(O)[C@H]1CCCN1S(=O)(=O)c1cccc2cccnc12
→ nt	nt	3.7	0.7	2	-1.9	-7	nt
- CN1OC(Cn2cc(C#N)c(=O)n(C)c2=O)CC1c1ccccc1 (configuration not stated)
→ -23	1.4	1.7	0.8	2	-2.9	-4	-3
- O=c1c2cccc3c2c(nn1-c1ccccc1)-c1ccccc1-3
→ -1	0.4	-37	1.0	-23	2.4	6	15
- CN1CCN(Cc2ccc(-c3ccc(Cl)cc3)o2)CC1
→ -19	nt	3.1	0.4	5	-0.1	-2	0
- COc1ccc(/C=C(\NC(=O)c2ccc(OC)cc2)C(=O)NC(CCSC)C(=O)O)cc1 (configuration not stated)
→ 27	-0.5	5.1	0.2	6	3.1	-3	-7

Beta2AR agonist: entries above that show a hit
SMILES | RanGTP-Imp inh | UCH37 DUB inh | A1 inh | Beta2AR agonist | LANA-H2B inh
COc1ccc(-n2nc3c(N4CCC(C(=O)NCc5ccccc5C)CC4)nnc(C)c3c2C)cc1 | 7.7 | -26 | 0.3 | 82* | -3.7

Compound profiles (already shown).
CN1CCN(Cc2ccc(-c3ccc(Cl)cc3)o2)CC1 in the list: Calb FLC = -19; RanGTP-Imp inh = nt; UCH37 DUB inh = 3.1; A1 inh = 0.4; Beta2AR agonist = 5; LANA-H2B inh = -0.1; Beta apoptosis = -2; T cruzi inh = 0
CCOc1ccc(-c2[nH]nc3c2C(c2ccc4c(c2)OCO4)C(C#N)=C(N)O3)cc1OC (configuration not stated) in the list: Calb FLC = 12; RanGTP-Imp inh = 0.6; UCH37 DUB inh = nt; A1 inh = 0.8; Beta2AR agonist = 7; LANA-H2B inh = -4.1; Beta apoptosis = -2; T cruzi inh = -10
CCN(CCO)Cc1csc2c(Br)cccc12 in the list: Calb FLC = 1; RanGTP-Imp inh = -0.9; UCH37 DUB inh = 3.4; A1 inh = 1.1; Beta2AR agonist = 9; LANA-H2B inh = -2.9; Beta apoptosis = -3; T cruzi inh = 16

Source: PubChem BioAssay (several laboratories)
